Arbovirus anti – antivirals against arbovirus infection. arbovirus infection cell-based antiviral screen. inhibition, % at 10 µM. 200,000 compounds, 0.37% hits. AID 1251;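 active = inhibition from about 30%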;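 note: bluetongue infection of BSR cells; cell survival read as ATP light after 72 h; 0% = infected wells without compound and 100% = uninfected wells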
RecA intein inh – blocks M. tuberculosis RecA intein splicing | P9WHJ3 | cell-free RecA intein splicing, fluorescence | inhibition, %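 (about 9 µM by stock and volumes)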 | 290,000 compounds, 0.75% hits; in the data active = inhibition above about 30%; inconclusive = no clear call, values can overlap the other calls;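 note: 0% = vehicle wells and 100% = reference inhibitor control wells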
Target sequence (P9WHJ3 whole entry, looked up): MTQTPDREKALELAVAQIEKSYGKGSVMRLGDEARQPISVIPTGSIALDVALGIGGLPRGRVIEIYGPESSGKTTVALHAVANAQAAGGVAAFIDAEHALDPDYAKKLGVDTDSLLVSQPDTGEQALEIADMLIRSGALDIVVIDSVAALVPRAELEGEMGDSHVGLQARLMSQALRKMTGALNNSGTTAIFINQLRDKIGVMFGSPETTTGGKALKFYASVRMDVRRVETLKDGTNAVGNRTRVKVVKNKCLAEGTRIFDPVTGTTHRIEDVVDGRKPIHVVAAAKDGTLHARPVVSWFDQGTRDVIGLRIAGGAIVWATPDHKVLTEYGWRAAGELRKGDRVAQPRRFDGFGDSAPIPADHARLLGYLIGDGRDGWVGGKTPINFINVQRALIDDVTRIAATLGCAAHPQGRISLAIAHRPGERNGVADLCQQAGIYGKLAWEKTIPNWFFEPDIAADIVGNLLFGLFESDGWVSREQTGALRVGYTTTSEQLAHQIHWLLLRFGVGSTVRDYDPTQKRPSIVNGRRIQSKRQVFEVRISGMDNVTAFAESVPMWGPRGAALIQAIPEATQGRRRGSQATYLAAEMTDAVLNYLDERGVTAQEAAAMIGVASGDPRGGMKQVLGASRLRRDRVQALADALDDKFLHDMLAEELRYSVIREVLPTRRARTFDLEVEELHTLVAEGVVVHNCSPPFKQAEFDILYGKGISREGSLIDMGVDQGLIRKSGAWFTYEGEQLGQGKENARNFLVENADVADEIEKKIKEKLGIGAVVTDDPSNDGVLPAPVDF
Mtb growth – M. tuberculosis H37Rv growth inhibitors, H37Rv strain (AID 1626); M. tuberculosis H37Rv growth inhibition; higher % means a stronger effect; one-dose inhibition, % at 10 µM; IC50 in µM for titrated hits; 220,000 compounds, 0.95% hits;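 active = confirmed in a dose series; inconclusive = inhibition above 80% but not taken into the dose series; inactive = below 80% or under 30% at every dose of the series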;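 note: bacteria incubated seven days before Alamar blue readout; 0% = bacteria only wells and 100% = bacteria with antibiotic wells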
Mtb betalactam – beta-lactam sensitization of Mtb H37Rv. M. tuberculosis H37Rv growth with meropenem, percent inhibition; hits of this screen are not shown here. inhibition, % at 25 µM. 330,000 compounds, 0.27% hits;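 active = about 74% or more and at least 40 points above the plate without the antibiotic, then above 30% in a dose series; inconclusive = first-round hits that could not be retested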;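 note: growth measured after seven days incubation then overnight dye step; 0% = bacteria only wells and 100% = bacteria with antibiotic; twin plates without the antibiotic show which effects depend on it; some results filed as inactive read as strong as hits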
YopH PTP inh – YopH (Yersinia) phosphatase inhibition; fluorescence Ex485/Em525; inhibition, %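 (about 10 µM by stock and volumes)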; 140,000 compounds, 0.16% hits; AID 898;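 active = inhibition of 50% or more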;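 note: controls were vehicle for no effect and minimum signal wells for full effect; inactives centre near -20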
Arbovirus anti repeat – recorded beside Arbovirus anti, whose call it bears; inhibition, %; measured here: 10K subset replicate screen; many hits read low in the repeat;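 first of two repeat runs on a subset; 0% = infected and 100% = uninfected wells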
* = called active by the depositor; ? = inconclusive; . = no result given; & = joins results of further samples.

SMILES	Arbovirus anti	RecA intein inh	Mtb growth	Mtb betalactam	YopH PTP inh	others
C=CCn1c(CC(C)(C)C)nc2ccccc21	-8	1.0	3%	-1	.
CN(CC(=O)Nc1ccc(F)cc1)C(=O)COC(=O)C1CCN(c2ccc(C(F)(F)F)cn2)CC1	.	0.5	.	-2	.
CC(C)c1cccc(C(C)C)c1NC(=O)COC(=O)c1ccc(OCC(=O)Nc2cccc(C(F)(F)F)c2)cc1	12	-0.7	46%	73	-2
COc1ccc(NC(=O)CSc2nnc(CCC(=O)Nc3ccc(C)c(Cl)c3)n2C)cc1	4	0.5	65%	-2	-39
Cc1ccccc1C1CC(=O)NC2=C1C(=O)CCC2 (stereo not drawn)	0	-4.5	-2%	-1	-9
CN(C)c1ccc(/C=N/NC(=O)c2ccn(C)n2)cc1	.	-2.2	-8%	-7	.
CCC(CC)C(=O)N1CC(=O)Nc2ccc(Br)cc2C1c1ccccc1 (stereo not drawn)	3	-2.1	-1%	2	-49
CC(=Nc1ccccc1C(F)(F)F)c1ccncc1	.	2.6	.	-3	.
COc1ccc(S(=O)(=O)NCC2CCCN(C(=O)c3ccccc3)C2)cc1 (stereo not drawn)	-1	1.8	-4%	-2	.
OCCN(CC#CC(O)(c1ccccc1)C1CCCC1)CCO (stereo not drawn)	5	-1.1	-1%	1	-31
O=c1c2ccccc2nnn1CSc1nnc(COc2ccc(Cl)cc2)n1Cc1ccco1	12	-2.7	4%	-5	-30
C=CCNC(=O)C1CC(=O)N(c2ccc(OCC(=O)Nc3ccc(CC)cc3)cc2)C1 (stereo not drawn)	.	1.0	.	-2	.
CCc1noc(C)c1C(=O)N1CCN(S(=O)(=O)c2c(C)c(C)cc(C)c2C)CC1	.	-2.8	.	-6	.
COc1ccc(CNC(=O)CNC(=O)c2ccc(Br)o2)cc1OC	.	1.3	.	-3	.
CCCCC(=O)Nc1cc([N+](=O)[O-])ccc1Cl	-2	-0.3	4%	11	-22
COC(=O)[C@H](Cc1ccccc1)NC(=O)NCc1cccs1	8	0.0	-2%	-8	-14
CC(C)(C)C(=O)COC(=O)C1CC(=O)N(c2ccccc2)C1 (stereo not drawn)	-1	0.8	5%	-4	.
COc1cc(OC)cc(C(=O)N[C@H](C(=O)OCC(=O)Nc2ccc(C)cc2C)C(C)C)c1	7	4.7	-2%	2	-17
COc1ccccc1NCc1ccc([N+](=O)[O-])s1	-19	-5.0	6%	-10	-9
CCOc1ccc(C(C)=O)cc1COc1cccnc1[N+](=O)[O-]	.	-0.7	.	2	.
CC1CCN(C(=O)CSc2nnc(CNC(=O)c3ccc(S(=O)(=O)N(C)C)cc3)o2)CC1	.	1.3	.	-13	.
COc1ccc(CCNC(=O)c2cc(S(=O)(=O)N3CCOCC3)ccc2N2CCCC2)cc1OC	.	-3.6	.	-5	.
Cc1csc(NC(=O)CSc2ncc(-c3ccccc3)[nH]2)n1	2	-0.3	2%	-4	-13
N#Cc1c(N)nc2c(c1N)CC(CCl)O2 (stereo not drawn)	2	-3.6	-2%	4	-25
O=C(Cc1ccc(F)cc1)Nc1nnc(SCC(=O)N2CCCCC2)s1	9	-4.1	-2%	9	.
CCOC(=O)C1(Cc2cccc(OC)c2)CCN(Cc2ccc(OC)c(OC)c2)CC1	7	-1.7	7%	11	.
Cc1ccc(C(=O)Nc2ccc3nccnc3c2)cc1	-7	3.5	-7%	-14	-34
OC(CNCC1CCCO1)COc1ccc(OCC(O)CNCC2CCCO2)cc1 (stereo not drawn)	5	1.0	0%	-7	-13
CC(=O)NC(Cc1ccccc1)C(=O)NC(Cc1ccccc1)C(=O)O (stereo not drawn)	.	-3.4	.	-5	.
O=C(O)c1cccc(NS(=O)(=O)c2ccc3c(c2)C(=O)c2ccccc2C3=O)c1	.	27	-14%	-3	.
COc1ccc(S(=O)(=O)NN(C)C)cc1N(C)S(=O)(=O)c1ccc(Cl)cc1	2	7.0	-6%	-4	1
CCOc1ccc2ccccc2c1/C=N/NC(=O)c1ccc(C)nc1	.	-2.2	.	6	.
COc1ccccc1CN(C)C(=O)c1cnc(C)cn1	.	-46	.	4	.
Cc1ccc(N2C(=O)[C@@H]3[C@H](C2=O)[C@H]2C=CC=NN2[C@@H]3C(=O)Nc2ccccc2)cc1	.	-6.7	-4%	-17	.
O=C(NCc1cccnc1)C1CCN(S(=O)(=O)c2cccnc2)CC1	1	0.1	-2%	-4	0
Cc1nn(CC(=O)Nc2ccccc2C(F)(F)F)c(=O)c2cccn12	.	2.9	.	4	.
COc1ccc(CCNC(=O)C2CCN(S(=O)(=O)c3ccc4c(c3)oc(=O)n4C)CC2)cc1OC	.	-1.3	.	2	.
NC(=O)c1sc2nc3c(c(-c4cccs4)c2c1N)CCCCC3	24	-2.6	4%	0	2
Cc1ccc(C2c3c(oc4cc(C)c(C)cc4c3=O)C(=O)N2CCCN2CCOCC2)cc1 (stereo not drawn)	-2	1.0	2%	-6	-24
Cc1ccc(-c2nnn(CC(=O)N(c3ccccc3)C(C(=O)NC3CCCC3)c3ccncc3)n2)o1 (stereo not drawn)	.	3.0	.	-3	.
Cc1ccc(-n2c3c(cc(C(=O)NC4CCSC4=O)c2=O)C(=O)CC(C)(C)C3)cc1 (stereo not drawn)	10	-2.2	-7%	0	-2	Arbovirus anti repeat=6
O=C(CSc1nnc(Cc2ccccc2)o1)N1CCCc2ccccc21	5	2.8	13%	8	-9
CCOC(=O)c1sc(NS(=O)(=O)c2ccc(C)cc2)nc1C	3	5.4	0%	7	-137
CCN1CCCC1CNS(=O)(=O)c1c(C)cc(C)cc1C (stereo not drawn)	.	-0.6	.	4	.
O=C(Nc1ccc(C(=O)N2CCOCC2)cc1)Nc1cccc(C(F)(F)F)c1	.	2.9	.	-16	.
CCOc1ccc(OCC)c(NC(=O)CN2CCC(NC(=O)c3cccc(F)c3)CC2)c1	0	0.3	-1%	5	-31	Arbovirus anti repeat=-3
O=C(c1ccco1)c1cn(Cc2ccc(Cl)cc2)c2ccccc12	12	-0.1	8%	71	-15
Cc1ccc(N(Cc2ccccc2O)C(=O)c2ccccc2F)cc1	.	8.5	.	-3	.
CCOC(=O)c1[nH]c2ccc(Br)cc2c1NC(=O)CCN1CCCCC1	-12	.	-2%	.	-28
O=C(Cc1ccc(Cl)cc1)NCCS(=O)c1ccc(Cl)cc1 (stereo not drawn)	-2	-1.0	-6%	6	-29

The list continues:
SMILES	Arbovirus anti	RecA intein inh	Mtb growth	Mtb betalactam	YopH PTP inh	others
O=C(CNC(=O)c1ccc(Cl)cc1Cl)OCC(=O)N1CCCC1=O	.	5.0	.	2	.
CCOC(=O)N1CCN(C(=O)CSc2nc3c([nH]c4ccccc43)c(=O)n2CC)CC1	.	2.7	.	-2	.
CC(=O)OCC1=C(C(=O)O)N2C(=O)C(NC(=O)c3ccc(COc4ccc(Cl)cc4)o3)C2SC1 (stereo not drawn)	-2	8.2	2%	-4	.
CCOC(=O)c1cc(/C(C)=N/OC(=O)c2ccc(Cl)cc2)on1	.	-0.6	0%	78	.
CCOc1cccc(N(C(=O)Cc2cccs2)C(C(=O)NC2CCCCC2)c2cccn2C)c1 (stereo not drawn)	-6	5.7	4%	9	-14
Cc1ccc(S(=O)(=O)N(C)c2ccc(C(=O)Nc3ccc(C)cn3)cc2)cc1	.	2.1	.	1	.
COc1ccc(OC)c(NC(=O)CSc2nnc3ccc(-c4ccncc4)nn23)c1	3	-1.9	-3%	-1	.
O=C(O)c1cc(-c2ccccn2)n[nH]1	6	-2.7	-2%	?	12
CCCN(C(=O)CSc1nnnn1-c1ccccc1OC)C1CCS(=O)(=O)C1 (stereo not drawn)	.	-1.8	.	-11	.
CN(C)CCC(c1ccccc1)c1ccccn1 (stereo not drawn)	10	-0.2	-12%	-3&-4	-45

Already shown: entries from further up.
SMILES	Arbovirus anti	RecA intein inh	Mtb growth	Mtb betalactam	YopH PTP inh	others
CCOc1ccc(OCC)c(NC(=O)CN2CCC(NC(=O)c3cccc(F)c3)CC2)c1	0	0.3	-1%	5	-31	Arbovirus anti repeat=-3
O=C(c1ccco1)c1cn(Cc2ccc(Cl)cc2)c2ccccc12	12	-0.1	8%	71	-15
Cc1ccc(N(Cc2ccccc2O)C(=O)c2ccccc2F)cc1	.	8.5	.	-3	.
CCOC(=O)c1[nH]c2ccc(Br)cc2c1NC(=O)CCN1CCCCC1	-12	.	-2%	.	-28
O=C(Cc1ccc(Cl)cc1)NCCS(=O)c1ccc(Cl)cc1 (stereo not drawn)	-2	-1.0	-6%	6	-29
O=C(CNC(=O)c1ccc(Cl)cc1Cl)OCC(=O)N1CCCC1=O	.	5.0	.	2	.
CCOC(=O)N1CCN(C(=O)CSc2nc3c([nH]c4ccccc43)c(=O)n2CC)CC1	.	2.7	.	-2	.
CC(=O)OCC1=C(C(=O)O)N2C(=O)C(NC(=O)c3ccc(COc4ccc(Cl)cc4)o3)C2SC1 (stereo not drawn)	-2	8.2	2%	-4	.
CCOC(=O)c1cc(/C(C)=N/OC(=O)c2ccc(Cl)cc2)on1	.	-0.6	0%	78	.
CCOc1cccc(N(C(=O)Cc2cccs2)C(C(=O)NC2CCCCC2)c2cccn2C)c1 (stereo not drawn)	-6	5.7	4%	9	-14
Cc1ccc(S(=O)(=O)N(C)c2ccc(C(=O)Nc3ccc(C)cn3)cc2)cc1	.	2.1	.	1	.
COc1ccc(OC)c(NC(=O)CSc2nnc3ccc(-c4ccncc4)nn23)c1	3	-1.9	-3%	-1	.
O=C(O)c1cc(-c2ccccn2)n[nH]1	6	-2.7	-2%	?	12

Later entries.
SMILES	Arbovirus anti	RecA intein inh	Mtb growth	Mtb betalactam	YopH PTP inh	others
CN1CCN(C(=O)c2cc3c(C(F)(F)F)nn(C)c3s2)CC1	2	-3.0	-2%	-4	-19
COC(=O)c1ccc(CNC(=O)COC(=O)COc2ccc(OC)cc2)cc1	8	-1.9	-1%	0	.
Cc1nc(SCC(N)=O)c([N+](=O)[O-])[nH]1	-2	5.7	3%	-1	.
COC(=O)C1=C(c2ccc(S(C)(=O)=O)cc2)C[C@@H]2CC[C@H]1N2C(=O)NCc1ccco1	.	-0.2	-10%	-3	.
C=CCn1c(N2CCCCCC2)nc2c1c(=O)n(C)c(=O)n2C	4	2.1	8%	-1	-15
O=C(OCC(O)COC(=O)c1cccnc1)c1cccnc1	.	-1.5	-1%	-10	.
O=[N+]([O-])c1ccccc1S(=O)(=O)NCc1ccco1	4	-0.2	9%	3	.
COc1cc(/C=N\NS(=O)(=O)c2ccccc2)cc(OC)c1OC	.	2.3	.	1	.
O=[N+]([O-])c1cc(/C=N/O)ccc1SCc1ccccc1Cl	2	-1.8	6%	14	-31
O=C(CSC1CS(=O)(=O)c2cc([N+](=O)[O-])ccc21)NNC(=O)c1ccccc1 (stereo not drawn)	.	-5.8	27%	.	.
Cc1ccc(NC(=S)NNC(=O)CCn2cc(C)cn2)cc1	-5	1.6	-10%	-6	2
CN(C)c1ccc(C2OC(=O)C3(CCCC3)C(=O)C2(C)C)cc1 (stereo not drawn)	3	-2.8	1%	0	-16
Cc1cc(C)nc(SCc2nc3nc(C)cc(C)n3c2Br)n1	-1	0.2	0%	7	-26
OCCNCCCCOc1ccc(F)cc1	5	-2.7	-9%	-2	18
CS(=O)(=O)N1CCc2cc(C(=O)O)ccc21	4	-1.9	-6%	-12	-43
O=C(Nc1ccc2c(c1)OCO2)C1CCN(S(=O)(=O)c2cccs2)CC1	-13	-0.6	-1%	-5	-15
CC(C)(C)n1cc(C(=O)c2ccccc2OCCCF)cn1	.	1.2	.	3	.
Cc1ccc(S(=O)(=O)NCC(=O)N(CC(=O)NCc2ccco2)C2CCCC2)cc1	.	0.0	.	-7	.
N#CC1=C2SCN(Cc3ccco3)CN2C(=O)CC1c1c(F)cccc1Cl (stereo not drawn)	3	20	-3%	-6	-57	Arbovirus anti repeat=-4
O=C(Nc1ccc(Cl)cn1)c1cc2c(s1)-c1ccccc1OC2	.	-30	5%	10	.
O=C(CCSCCc1ccccn1)Nc1c(F)cc(F)cc1Br	4	1.5	-5%	0	-16
CC(C)(C)NC(=O)C(Cc1ccccc1)NS(=O)(=O)c1ccc2c(c1)CCC(=O)N2 (stereo not drawn)	11	-1.0	-9%	0	-38
COc1ccc(N=C(C)C2=C(O)c3ccccc3C2=O)cc1	3	-2.6	5%	0	-15
O=C(C[n+]1ccn(CCCNP2(=O)C=C(c3ccccc3)OC(c3ccccc3)=C2)c1)c1cccs1	-1	0.4	7%	21	.

Assay outcomes deposited in PubChem by several laboratories.

A portion of the library, so the mix of outcomes need not match the whole.
